Sfp inh = blocks B. subtilis Sfp PPTase activity; Q9F4F7; Biochemical Sfp PPTase activity, qHTS; Potency, µM, for the others: max response, negative = inhibition, actives largely listed as inhibitors; 310,000 compounds, 3.5% hits; active = well fitted inhibition curve with a large enough effect; inconclusive = small, poorly fitted or top-dose-only effect, or another doubt; inactive = no such curve, though single readings can be large or run the other way;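 note: the enzyme is Sfp with the accession as filed and its product quenches rhodamine fluorescence; potency is the fitted concentration of half-maximal effect; 0% = enzyme reaction without inhibitor and -100% = no enzyme wells; top concentration of the series not given in the record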
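After 15 min at room temperature with compound, 15 nM Sfp received 5 uM rhodamine-CoA plus 12.5 uM BHQ-2-ybbR (50 mM Hepes pH 7.6, 10 mM MgCl2). Rate came from the fluorescence difference over 30 min, ex 525/em 598 nm.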
ClpP mod = qHTS Assay for Activators of ClpP | 340,000 compounds, 1.9% hits | Potency, µM (top dose mostly 57.5 µM), without a hit: at the top dose activity change, negative = active | purified B. subtilis ClpP, FRET peptide cleavage, 20 min; active = well fitted falling curve with a large enough effect; inconclusive = small, poorly fitted or top-dose-only effect; inactive = no such curve, though single readings can be large or run the other way; note: potency is the fitted concentration of half-maximal effect; the source files actives as falling curves though it sought activators and does not explain the sign; nearly all actives have a fitted effect of over 65% in size; many hits overshoot -100%
Target sequence (P80244 whole entry, looked up): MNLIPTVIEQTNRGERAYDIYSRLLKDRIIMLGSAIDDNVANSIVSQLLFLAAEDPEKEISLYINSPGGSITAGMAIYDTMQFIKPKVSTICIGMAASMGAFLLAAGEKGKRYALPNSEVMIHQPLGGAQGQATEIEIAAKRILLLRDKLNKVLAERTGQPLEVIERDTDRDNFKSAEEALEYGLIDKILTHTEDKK
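ClpP 10 microg/mL final, pH 8 Tris/KCl buffer with BSA, glycerol, Tween-20; compound pinned in; FRET-FV substrate; RT 20 min; Ex320/Em430; ΔFRET vs ADEP 5.8 microM, DMSO, no enzyme.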
gsp agonist = agonists of gsp mutant (McCune-Albright syndrome) | 340,000 compounds, 0.13% hits | AID 624287 | Potency, µM (series often up to 76.9 µM), for the others: top-dose activation (cAMP increase), hits mostly activators | gsp mutant cells, cAMP HTRF, 30 min; control for the full effect not named in the record; active = well fitted activation curve with a large enough effect; inconclusive = small, poorly fitted or top-dose-only effect, or another doubt; inactive = no such curve, though single readings can be large or run the other way; cell line not stated here;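 note: phosphodiesterase inhibitor Ro 20-1724 added with compounds to block cAMP breakdown; potency is the fitted concentration of half-maximal effect; nearly all actives have a fitted effect of over 60% in size; about a fifth of the inactives were tested at one dose only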
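Cells stably selected in G418 were plated at 2000/well, grown 16-24 hr, then given compounds in DMSO with the PDE inhibitor […] (300 uM solution added) for 30 min at 37C; cAMP was read by HTRF.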
TRPV1 PAM = enhances activation of the human vanilloid receptor TRPV1 | TRPV1-expressing cells, Fluo-8 calcium influx, capsaicin EC20 potentiation; host cell line not named in the record; control for the full effect not named in the record | potentiation, % at 8.33 µM | 320,000 compounds, 0.02% hits | Q8NER1; active means potentiation above 80%; inconclusive means 30% to 80%; inactive means below 30%; note: 0% is about no effect
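TRPV1-expressing cells were cultured overnight at 35.5C and loaded with Fluo-8 calcium dye for 40 to 90 min at room temperature. After a 10 s baseline, compound was added and calcium influx was read kinetically for 3 min (ex 480/em 520 nm).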
gsp antag = antagonists of gsp mutant (McCune-Albright syndrome); AID 624288; 340,000 compounds, 0.4% hits; gsp-mutant cells, cAMP HTRF, 30 min; control for the full effect not named in the record; Potency, µM (highest dose often 76.9 µM), for inactives: at the top dose activity change, negative = inhibition, usual class: inhibitors; active = falling curve of any shape with a large fitted effect; inconclusive = falling curve, mostly with a smaller effect; inactive = flat or rising curve; cell line not stated here;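 note: intracellular cAMP measured with PDE inhibitor Ro 20-1724 present during compound exposure; potency is the fitted concentration of half-maximal effect; % is set by controls: 0 for no effect and ±100 for the full control effect; nearly all actives have a fitted effect of over 65% in size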
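Cells in G418 medium, seeded 16-24 h, 37C; buffer exchange to DPBS + 1 mM CaCl2, 0.5 mM MgCl2, 0.05% BSA; cpds in DMSO + […] (300 uM stock), 30 min 37C; HTRF cAMP detection.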
Menin-MLL FL inh = menin-MLL binding inhibition, fluorescein peptide; 290,000 tested, under 10 active; FP activity change, % at 61.4 µM; Fluorescence polarization, fluorescein-MLL peptide displacement from menin; AID 1766; inconclusive = falling polarisation curve, or a change in total fluorescence; inactive = total fluorescence flat and polarisation flat or rising; no compound was filed as active; the % refers to the polarisation; negative = inhibition;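 note: % of control where 0% means no effect; inhibitors lower the polarisation; unlabelled MLL peptide was the positive control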
D2 PAM = positive allosteric modulators of human D2 dopamine receptor | P14416 | DiscoveRx D2 beta-arrestin cells, luminescence, 90 min; 100% = 57 uM dopamine signal | potentiation, % (no concentration beside the values) | 360,000 compounds, 0.23% hits | AID 624464; active = potentiation of 50% or more; inconclusive = 30% to 50%; inactive = 30% or less;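 note: compound concentration not given in the record; tested on top of an EC20 dose of dopamine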
Target sequence (P14416 whole entry, looked up): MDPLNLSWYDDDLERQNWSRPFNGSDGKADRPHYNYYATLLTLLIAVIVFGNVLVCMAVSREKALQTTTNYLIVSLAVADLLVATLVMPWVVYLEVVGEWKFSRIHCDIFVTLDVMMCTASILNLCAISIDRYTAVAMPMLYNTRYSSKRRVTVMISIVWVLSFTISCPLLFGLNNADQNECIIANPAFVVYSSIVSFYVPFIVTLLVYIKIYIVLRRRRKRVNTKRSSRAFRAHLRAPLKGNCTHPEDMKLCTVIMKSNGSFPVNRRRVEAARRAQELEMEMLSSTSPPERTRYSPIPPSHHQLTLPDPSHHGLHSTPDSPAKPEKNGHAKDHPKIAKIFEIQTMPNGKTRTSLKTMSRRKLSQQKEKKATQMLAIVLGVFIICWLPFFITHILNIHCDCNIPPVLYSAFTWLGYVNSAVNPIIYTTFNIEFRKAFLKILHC
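PathHunter D2 cells, attached overnight at 37 deg C, received compound in DMSO plus dopamine at EC20 (50 nM final) for 90 min at 37 deg C. Beta-arrestin recruitment was read as luminescence after 1 h with detection reagent at ambient temperature.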
The depositor's hits bear a star; ? = inconclusive; . = not tested or not shown; & = joins results of further samples; [ ] = another dose, or the depositor's remark. Outcome played no part in choosing rows; any-hit rate near 5.1%.

compound | Menin-MLL FL inh | ClpP mod | gsp agonist | Sfp inh | D2 PAM | TRPV1 PAM | gsp antag
O=C(CCN1CCc2ccccc21)c1ccc2c(c1)OCCO2 | 0.6 | -5.5% | -2% | ? | 13 | 0 | ?
C=CCc1cccc(/C=N/NC(=O)C[n+]2ccccc2)c1O | 12 | -0.3% | 18% | 11% | -12 | 3 | 1%
CCc1cccc2c(C(=O)CN3C(=O)NC4(CCCCCC4)C3=O)c[nH]c12 | . | -0.5% | -12% | . | -7 | 3 | 1%
COc1cccc(/C=C2\Oc3cc(OCC(=O)N4CCCC4)ccc3C2=O)c1OC | . | -1.9% | 18% | 1% | 4 | 3 | 5%
COC(=O)c1ccccc1Sc1snnc1C | 3.6 | . | 5%[15.4 µM] | 22% | -9 | ? | 20%
N#Cc1c(C(F)(F)F)cc(-c2ccc(Cl)c(Cl)c2)nc1SCCN1CCOCC1 | ? | 2.6% | -1% | 17% | -5 | -2 | -15%
O=C(CC1C(=O)NCCN1CC1CCCCC1)NCc1cc(F)ccc1F (stereo not given) | -4.7 | . | -5%[15.4 µM] | -3% | -14 | 16 | -5%
COCCn1c(CN2CCN(C)CC2)nc2c1c(=O)n(C)c(=O)n2C | 3.2 | -2.7% | 21% | 19% | -5 | 5 | -6%
CCOC(=O)c1cc2c(ccn2C)n1Cc1cc(C)ccc1C | 2.2 | -15% | ? | -10% | -9 | -5 | -19%
CC1CCC2(CC1)NC(=O)N(CC(=O)c1ccc[nH]1)C2=O (stereo not given) | -0.7 | 28µM* | 14% | 14% | ? | 4 | 5%
CCC(C)c1ccc(OCC(=O)Nc2ccc(Cl)cn2)cc1 (stereo not given) | 0.7 | 2.1% | 20% | -7% | -7 | -15 | -7%
CCCN1C(=O)/C(=C/c2c(NCCCOC(C)C)nc3c(C)cccn3c2=O)SC1=S | ? | -1.5% | -8%[15.4 µM] | -8% | -15 | 10 | 3%
Cc1ccc(-c2nn(-c3ccccc3)cc2C(=O)Nc2ccc(C(=O)O)cc2)cc1 | -1.0 | . | 4%[15.4 µM] | 5% | 1 | 10 | ?
CCOc1ccccc1NC(=O)C1=C(C)NC(=O)NC1c1cccc(OC)c1OC (stereo not given) | 0.2 | -0.4% | -7% | 11% | -6 | 6 | -8%
Cc1ccc2cc(C)c(SCC#N)nc2c1 | 2.7 | -2.8% | -5% | -1% | -6 | -13 | -6%
CCOc1ccc(C(=O)Nc2ccc(CN3CCOCC3)cc2)cc1Cl | 3.8 | 0.9% | -23% | 8% | -2 | -13 | 7%
CCN(CC)S(=O)(=O)c1ccc(/C=C/C(=O)N(c2ccccn2)C2CCCCC2)cc1 | 0.7 | . | -3%[15.4 µM] | 8% | -8 | 3 | -5%
Cc1cc(O)c(C(C)C)cc1N=Cc1cc([N+](=O)[O-])ccc1O | 3.4 | -2.1% | 5% | 14µM* | -15 | 0 | -1%
CCCCn1c(SCC(=O)N2CCCC2=O)nc2cc(S(N)(=O)=O)ccc21 | . | -2.3% | -16% | . | 1 | -9 | 3%
O=C(Oc1ccccc1-c1csnn1)c1cccs1 | -4.0 | . | -1%[15.4 µM] | 2% | -1 | 7 | 2%
Cc1cc(C(=O)Cn2nc(C(=O)O)c3ccccc3c2=O)c(C)n1-c1ccc(F)cc1 | . | -1.1% | -42%[inhibitor] | -8% | -23 | -13 | 14%
O=C(O)c1ccc(COc2ccc3ccccc3c2/C=C2/NC(=O)N(c3ccccc3)C2=O)cc1 | 7.2 | -9.8% | ? | -30% | -8 | 11 | ?
Nc1ncnc(Nc2cccc(F)c2)n1 | 3.1 | 1.2% | -8%[15.4 µM] | 9% | 6 | 16 | -8%
Cc1ccc(NS(=O)(=O)c2ccc3c(c2)NC(=O)CCS3)c(Br)c1 | . | -0.6%&-0.3% | -16% | 12% | 5 | -13 | -4%
COC(=O)C(NC(=O)c1ccco1)(Nc1nc(C2CC2)cs1)C(F)(F)F (stereo not given) | -6.5 | -1.6% | 12% | -1% | -11 | 4 | -25%
Cc1nc(N=C(N)N)nc2ccccc12 | -0.5 | . | -3%[15.4 µM] | 19% | -12 | 4 | 12%
Cc1ccc(CCNS(=O)(=O)c2ccc3c(c2)NC(=O)C(C)C(=O)N3)cc1 (stereo not given) | -0.1 | 1.2% | -13% | 11% | -5 | -11 | 4%
CCc1ccccc1NC(=O)c1cccc(N2C(=O)C3C4CCC(C4)C3C2=O)c1 (stereo not given) | -1.5 | -0.8% | 22% | 11% | 2 | -5 | -6%
O=C(COc1ccccc1Cl)Nc1cc(Cl)ccc1Oc1ccccc1 | -0.2 | -2.6% | -8% | -6% | 8 | ? | 4%
CCOC(=O)c1cc(C)sc1NC(=O)CSC1=NCCS1 | -1.3 | -3.3% | ? | -12% | 7 | -6 | -15%
O=C(CSc1ncnc2ccccc12)NCc1ccc2c(c1)OCO2 | 0.9 | . | 6%[15.4 µM] | 18% | 5 | -1 | 19%
S=C(NCc1ccccc1Cl)NC1CCCC1 | 5.3 | . | -5%[15.4 µM] | 27% | -12 | -4 | 2%
O=C(/C(=C/c1ccc(Cl)cc1)c1nc2ccccc2[nH]1)c1ccccc1 | -1.0 | -14% | -4% | 14% | -35 | -4 | -27%
CC(=O)N/C(=C\c1ccccc1)C(=O)OCC(=O)Nc1cc(S(=O)(=O)N(C)C)ccc1Cl | . | . | -50%[15.4 µM] | . | -51 | 0 | -4%
O=C(CC1C(=O)NCCN1Cc1ccc(F)c(F)c1)NCCn1cccn1 (stereo not given) | ? | . | -42%[inhibitor] | -4% | -3 | 1 | -6%
O=C(c1ccco1)N1CCN(C(=O)c2cccc3c2C(=O)N(Cc2cccnc2)C3)CC1 | 9.7 | 0.6% | 7% | -3% | -7 | 14 | 8%
Cc1cc2c(c(=O)n1CCN(C)C)C(c1ccc(Br)cc1)C(C#N)=C(N)O2 (stereo not given) | 0.6 | -1.7% | 13% | 14% | -6 | 6 | 0%
O=C(NCc1ccc(Cl)cc1)c1ncn[nH]1 | -1.1 | -0.7% | ? | -7% | -4 | 14 | 10%
O=C(CNS(=O)(=O)c1cccc2nsnc12)NC1CCCCC1 | -1.0 | -0.7% | -23% | -4% | -9 | 9 | 10%
N#Cc1nc(-c2ccc(F)cc2)oc1N1CCN(C(=O)c2ccco2)CC1 | 2.8 | 3.2µM* | 3% | -11% | -8 | -11 | -2%
Cc1cccc(-n2nnc(C(=O)NCc3ccccc3)c2N)c1 | 1.4 | 0.3% | -33% | -6% | -5 | -1 | -17%
CN(CC(=O)NC(=O)NC1CCCCC1)CC(=O)Nc1ccc(Cl)cc1 | . | 1.1% | ? | . | -4 | -2 | -14%
CCCCOc1ccc(-c2nnn(CC(=O)NCCc3c[nH]c4ccccc34)n2)cc1 | 1.7 | 1.5% | 12% | 15% | 7 | 13 | -6%
O=C(O)c1ccc2ccc3ccccc3c2c1 | . | -6.5% | 9% | . | -13 | . | 1%
COc1ccc(CCNC(=O)C(=O)NCC2OCCN2S(=O)(=O)c2cc(F)ccc2F)cc1 (stereo not given) | 2.5 | -2.3% | -14% | 16% | 0 | -12 | -8%
Cc1ccc(/C(O)=C2\C(=O)C(=O)N(C)C2c2ccc(Br)cc2)cc1 (stereo not given) | -2.6 | -0.9% | -2% | 11% | -5 | -13 | -5%
O=C(Nc1ccc2sccc2c1)c1cccc(N2C(=O)CCC2=O)c1 | -4.6 | ? | -1%[15.4 µM] | 0% | -32 | -6 | 1%
Cn1c(CNC(=O)C2CCC(=O)N(CCc3cccc(F)c3)C2)nc2ccccc21 (stereo not given) | -1.8 | . | 28% | 12% | 2 | 2 | 10%
CCC1(CC)NC(=O)N(CC(=O)Nc2ccc(C)cc2C)C1=O | . | 0.1% | -13%[15.4 µM] | . | -4 | . | 9%
O=C(Nc1ccc2c(c1)Cc1ccccc1-2)c1ccc(Br)o1 | -0.6 | 2.9% | 9% | 1% | 10 | 2 | -11%
O=C(COc1ccccc1)NC(NC(=S)Nc1ccccc1C(=O)O)C(Cl)(Cl)Cl (stereo not given) | -4.0 | 35µM* | -30%[inhibitor] | -15% | -9 | 22 | 6%
O=C(CCCOc1ccccc1)N1CCCc2ccccc21 | 4.2 | -0.3% | 11% | -9% | -6 | -11 | -6%
CN1CC2(C(=O)c3ccccc3)CN(C)CC(C(=O)c3ccccc3)(C1)C2 | -1.8 | 0.0% | -46%[inhibitor] | 0% | 8 | 11 | 1%
C=CCNC(=O)COC(=O)CCC(=O)c1cccs1 | -0.3 | . | -22%[15.4 µM] | 1% | -2 | . | 5%
CCCn1c(CCC(=O)O)ccc1-c1cccs1 | 22 | 25µM* | -9% | 25µM* | 16 | 4 | -6%
S=C(NCCCN1CCOCC1)N(Cc1ccccc1)Cc1ccccc1 | 5.5 | 1.8% | -21% | 13% | -36 | -8 | -8%
Cc1ccc(NC(=S)N2CCN(C(=O)C3CCCO3)CC2)cc1 (stereo not given) | 4.1 | -7.2% | 7% | -16% | -6 | 3 | -15%
CN(C)c1ccc(NC(=O)Nc2ccc3snnc3c2)cc1 | -0.1 | -0.3% | -10% | -5% | -6 | -14 | -16%
COc1ccc(C(=O)Cn2nnc(-c3ccccc3NC(=O)C(F)(F)F)n2)cc1 | 1.8 | -0.9% | 0% | ? | 6 | 4 | -1%
CCOC(=O)c1cnc2ccc(OC)cc2c1Nc1ccc2c(c1)OCCO2 | 7.5 | -3.1% | ? | -10% | 19 | -9 | -28%
O=C(C[n+]1ccccc1)c1ccc(-c2ccccc2)cc1 | -2.6 | . | -10%[15.4 µM] | 5% | -6 | -3 | 0%
O=C(Cn1cnc(S(=O)(=O)N2CCCCC2)c1)N1CCN(c2ccc([N+](=O)[O-])cc2)CC1 | . | 0.5% | 14% | 19% | -11 | -12 | 11%

Source: PubChem (National Center for Advancing Translational Sciences (NCATS))
